High-throughput results from PubChem BioAssay.
Arbovirus inh – antivirals against arbovirus infection, primary screen, cell-based, full library, 10K replicate subset; inhibition, % at 10 µM; hit rate 0.37% among 200,000; AID 1251, 2008; arbovirus infection cell-based antiviral screen;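 active = inhibition from about 30%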;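 also: bluetongue infection of BSR cells; cell survival read as ATP light after 72 h; 0% = infected wells without compound and 100% = uninfected wells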
RecA intein inh – Mtb RecA intein splicing inhibitors, primary screen, biochemical, fluorescence, HTS; cell-free RecA intein splicing; inhibition, %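 (about 9 µM by stock and volumes)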; hit rate 0.75% among 290,000; in the data active = inhibition above about 30%;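 also: 0% = vehicle wells and 100% = reference inhibitor control wells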
Target sequence (P9WHJ3 whole entry, looked up): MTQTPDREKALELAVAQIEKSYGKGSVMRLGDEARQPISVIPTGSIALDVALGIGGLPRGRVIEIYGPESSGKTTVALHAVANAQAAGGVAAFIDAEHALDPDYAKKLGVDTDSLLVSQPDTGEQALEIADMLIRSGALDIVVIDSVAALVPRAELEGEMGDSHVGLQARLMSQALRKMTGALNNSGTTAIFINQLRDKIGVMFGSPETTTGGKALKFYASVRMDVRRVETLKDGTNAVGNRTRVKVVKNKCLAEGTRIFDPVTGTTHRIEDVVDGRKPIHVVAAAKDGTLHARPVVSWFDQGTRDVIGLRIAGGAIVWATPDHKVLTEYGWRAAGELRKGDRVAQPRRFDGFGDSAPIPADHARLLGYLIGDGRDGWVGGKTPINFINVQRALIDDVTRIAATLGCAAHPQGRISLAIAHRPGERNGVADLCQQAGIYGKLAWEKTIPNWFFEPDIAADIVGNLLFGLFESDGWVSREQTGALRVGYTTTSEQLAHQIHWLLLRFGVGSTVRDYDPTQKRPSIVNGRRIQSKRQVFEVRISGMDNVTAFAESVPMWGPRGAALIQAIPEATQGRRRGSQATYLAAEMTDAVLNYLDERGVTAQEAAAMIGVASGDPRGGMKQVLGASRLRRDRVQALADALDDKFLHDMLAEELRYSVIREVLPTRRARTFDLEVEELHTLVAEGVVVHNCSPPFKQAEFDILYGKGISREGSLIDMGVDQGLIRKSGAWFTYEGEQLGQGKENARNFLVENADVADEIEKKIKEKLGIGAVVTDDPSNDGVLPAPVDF
Mtb betalactam – beta-lactam sensitization of Mtb H37Rv, H37Rv; M. tuberculosis H37Rv growth with meropenem, percent inhibition; hits of this screen are not shown here; inhibition, % at 25 µM; hit rate 0.27% among 330,000;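 active = about 74% or more and at least 40 points above the plate without the antibiotic, then above 30% in a dose series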;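 also: growth measured after seven days incubation then overnight dye step; 0% = bacteria only wells and 100% = bacteria with antibiotic; twin plates without the antibiotic show which effects depend on it; some results filed as inactive read as strong as hits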
Mtb H37Rv – M. tuberculosis H37Rv growth inhibitors, H37Rv strain (AID 1626). M. tuberculosis H37Rv growth inhibition; higher % means a stronger effect. hit rate 0.95% among 220,000. inhibition, % at 10 µM; hits with a dose series show IC50 in µM;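 active = confirmed in a dose series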;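 also: bacteria incubated seven days before Alamar blue readout; 0% = bacteria only wells and 100% = bacteria with antibiotic wells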
YopH inh – YopH tyrosine phosphatase inhibitors, primary screen, biochemical, fluorescence Ex485/Em525; YopH tyrosine phosphatase [Yersinia enterocolitica]; inhibition, %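 (about 10 µM by stock and volumes)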; hit rate 0.16% among 140,000; AID 898, 2007;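 active = inhibition of 50% or more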;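 also: controls were vehicle for no effect and minimum signal wells for full effect; inactives centre near -20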
Arbovirus inh repeat – also measured in Arbovirus inh; calls as there; inhibition, %; measured here: 10K subset replicate screen; many hits read low in the repeat;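 first of two repeat runs on a subset; 0% = infected and 100% = uninfected wells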
An asterisk follows results filed as active; · = no result given. Only part of the results is shown (hit frequency here may not be typical).

SMILES	Arbovirus inh	RecA intein inh	Mtb betalactam	Mtb H37Rv	YopH inh	others
CC(=O)NCC(=O)Nc1ccc(Br)cc1C(=O)c1ccccc1	·	1.1	6.4	-8.3%	·
Clc1ccc(-c2nnc(CSc3nnc(-c4cccs4)o3)o2)cc1	0.6	2.0	94.5	12.5%	-24.7
Clc1ccccc1Cc1noc(CN2CCCCC2c2ccccn2)n1 (stereo not drawn)	-1.8	·	1.3	-6.5%	·
COc1cccc(N2CCN(c3ccc4nnc(CCC(=O)Nc5ccc(OC)c(OC)c5)n4n3)CC2)c1	·	0.5	-3.7	·	·
O=[n+]1c2c(n([O-])c3cc(Br)ccc31)CCC2	-1.4	7.6	4.5	0.3%	-41.6
O=c1c2cc(N3CCOCC3)ccc2[nH]c(=S)n1Cc1ccccc1Cl	-6.2	-9.7	-3.0	-0.8%	·
CC(C(=O)NC1CCCC1)N(C(=O)c1ccc(-c2ccccc2)[nH]1)c1ccccc1F (stereo not drawn)	-19.3	-3.1	-2.8	3.6%	-24.1
O=C(NCc1ccon1)c1ccc(OC2CCN(CCc3ccccc3)CC2)cc1	-13.2	4.7	-1.0	-5.0%	·
Cc1nnc(NCc2ccco2)c2ccccc12	-5.0	0.1	86.1	16.5%	-14.2
Cc1cccc(-n2c(C)cc(C(=O)NC3CCCCC3)c2C)c1	3.3	6.3	-0.8	-9.0%	-33.9
CC1(OC(=O)c2cccs2)C(=O)C=C2C=C(c3ccsc3)OC=C2C1=O (stereo not drawn)	·	2.4	1.1	-2.8%	·
COc1ccc(CN2C(=O)NC3(CCCCCC3)C2=O)cc1F	7.1	0.2	0.5	1.0%	·
CCCOc1ccc(/C(O)=C2/C(=O)C(=O)N(CCN(C)C)C2c2ccc(O)c(OC)c2)cc1 (stereo not drawn)	7.0	-4.6	·	-6.1%	-5.5
O=C(COc1cc2oc(=O)c3c(c2cc1Cl)CCC3)NCc1ccncc1	·	-1.2	-3.1	·	·
O=C(CNC(=O)c1ccc(S(=O)(=O)N2CCCC2)cc1)N/N=C/c1ccccc1	-0.9	-2.4	1.0	-5.3%	-26.7
CSc1ccccc1NC(=O)c1ccc2c(c1)CCN2S(C)(=O)=O	·	0.3	-1.1	·	·
COC(=O)c1cn(-c2ccccc2)nc1-c1cccnc1	-10.5	2.4	4.0	-10.9%	4.3
C/C(=N\Nc1nc(-c2ccc(C)cc2C)cs1)c1cc2ccccc2oc1=O	-3.6	1.9	88.1	9.0%	-19.0
CCOCCCNC(c1ccccc1)c1ccncc1 (stereo not drawn)	·	-1.3	-0.6	·	·
COc1cccc(-c2nnc(SCc3nc4ccccc4[nH]3)n2N)c1	4.8	-0.8	2.4	·	29.8
COc1ccccc1C(C)NC(=O)Cc1ccsc1 (stereo not drawn)	·	-0.6	0.3	·	·
CSc1nc(=NC(C)=O)ss1	1.1	-0.3	-1.9	6.9%	10.6
COc1ccc2cc(CN(Cc3cccs3)Cc3nnnn3Cc3ccccc3)c(=O)[nH]c2c1	-15.9	14.1	-7.1	-7.7%	-9.6
CC(C)(C)c1nc(S(=O)(=O)c2ccc(Cl)cc2)c(N2CCOCC2)o1	5.4	-1.4	3.1	0.8%	-2.9
O=C(N/N=C/C1CC2CCC1C2)c1ccc2c(c1)OCO2 (stereo not drawn)	-2.9	-2.4	5.0	-3.6%	-17.5
Carrying on.
SMILES	Arbovirus inh	RecA intein inh	Mtb betalactam	Mtb H37Rv	YopH inh	others
O=C(CSc1cccc[n+]1[O-])Nc1cc(S(=O)(=O)N2CCOCC2)ccc1N1CCOCC1	-4.1	1.3	6.3	-2.5%	-23.7
CC(C)=CC(=O)Nc1ccc(Br)cc1	-5.4	1.4	-5.2	-9.3%	-7.0
O=C(Nc1ccccc1)Nc1ccccc1C(=O)NCc1ccco1	0.7	0.3	-3.0	-15.1%	-30.9
CN(C)CC(C)(C)CNCc1cc(=O)oc2ccc3ccccc3c12	·	-0.4	-4.7	·	·
Nc1[nH]c(N=NC(=O)c2ccc(F)cc2)c2ccccc12	-3.7	-3.2	-0.7	1.8%	-18.3
CCOC(=O)c1ccc2ncc(C(=O)OCC)c(NCCN3CCOCC3)c2c1	·	1.1	1.6	·	·
CCN(CC)CC(C)OC(=O)COc1ccc(OC)cc1 (stereo not drawn)	-0.8	-2.5	7.4	-9.2%	-31.9
Cn1c(O)c(/C=N/Nc2ccccc2)c(=O)n(C)c1=O	-34.9	-4.6	72.7	69.0%	·
CCCCCCC[C@H](N)[C@H](O)C(=O)N(C)[C@@H](CCS(C)=O)C(=O)N[C@@H](Cc1ccc(O)cc1)C(=O)N[C@@H](Cc1ccc(O)cc1)C(=O)O (stereo partly drawn)	·	-1.3	-0.1	-5.2%	·
O=C(CCl)Nc1cn(-c2ccccc2)nc1-c1ccccc1	-36.1	40.2*	99.3	9.87µM*	·
CN1CCN(CC(=O)N/N=C/c2ccc(F)c(F)c2)CC1	-8.0	2.3	-1.4	-2.6%	-12.9
Cc1c(CNC2CCCC(C)C2C)c(C(=O)O)c(C)n1Cc1ccccc1 (stereo not drawn)	9.1	0.2	-3.9	3.4%	-24.5
NC(=O)CC[C@H](NC(=O)c1ccc(F)cc1)C(=O)OCC(=O)Nc1ccc(N2CCOCC2)cc1	8.7	5.9	19.2	-3.5%	-25.1
COc1ccc(S(=O)(=O)N2CCOC2CNC(=O)C(=O)NCc2ccc3c(c2)OCO3)cc1 (stereo not drawn)	·	0.8	-0.1	·	·
CC(=O)Nc1ccc(NC(=O)c2ccc(CSc3ccccc3)o2)cc1	-2.7	6.0	-0.1	-2.9%	·
O=C(O)c1ccc2c(=O)n3c(nc2c1)/C(=C/c1ccc(Cl)c(Cl)c1)CC3	·	2.7	-1.6	·	·
Cc1ccc(NC(=O)CN2CCc3cc4c(cc3C2)OCCCO4)cc1C	·	-0.2	0.5	·	·
COc1ccc(CCNC(=O)COC(=O)C2CCCCC2)cc1	4.7	0.0	2.3	1.6%	-33.1
COC(=O)c1c(SCC(=O)Nc2ccc(C)c(C)c2)nc(=O)[nH]c1C	·	4.8	-1.6	7.4%	·
Clc1cccc(/C=N/Nc2nc(Cl)nc3ccccc23)c1	-5.2	-1.1	26.0	-10.8%	-34.0
CCOc1cc(/C=N/Nc2ccccc2Cl)ccc1OCC(=O)O	-33.3	·	12.8	62.8%	-23.8
CCOC(=O)CSc1nc2sc3c(c2c(=O)[nH]1)CC(C)(CC)OC3 (stereo not drawn)	-5.3	-1.6	3.0	0.0%	-10.6
COc1ncccc1-c1nnn(-c2ccccc2)n1	-2.1	0.1	7.3	-8.4%	·
C#CCOCCOCCOCCNc1nc(N2CCN(C(=O)[C@H](CCC(=O)O)n3cc(C(N)CC(C)C)nn3)CC2)nc(N2CCN(C(=O)[C@H](Cc3ccc(O)cc3)n3cc(C(N)CC(C)C)nn3)CC2)n1 (stereo partly drawn)	2.9	-1.1	-6.7	-8.7%	·
Cc1ccc2c(c1)c1c3n2CCCN(Cc2ccccc2)C3CCC1 (stereo not drawn)	-0.7	1.0	68.8	-2.6%	-18.9
The listing continues.
SMILES	Arbovirus inh	RecA intein inh	Mtb betalactam	Mtb H37Rv	YopH inh	others
Cc1c(NC(=O)C(C)Sc2nnc(-c3ccccc3)o2)c(=O)n(-c2ccccc2)n1C (stereo not drawn)	1.9	-1.5	-1.7	-6.8%	-56.8
Cc1cc(SCC(=O)OCC(=O)N2CCN(C(=O)c3ccco3)CC2)c(C)cc1Br	4.2	-1.2	7.7	6.3%	-7.5	Arbovirus inh repeat=6.0
CCOc1cccc(-c2nc3cc(C)ccc3o2)c1	-3.6	0.1	-0.9	-5.4%	-35.7
O=C(O)COc1ccc(NC(=O)C(c2ccccc2)c2ccccc2)cc1	·	2.8	-0.4	·	·
COc1ccc(NC(=O)CSc2nc(C)cc(C(F)(F)F)n2)cc1	-2.5	-1.2	-4.4	-6.0%	-4.1
COc1ccc(C2CC(c3cccs3)=NN2C(=O)CSc2nnc(N)s2)cc1OC (stereo not drawn)	-4.1	-3.0	-1.7	-3.4%	·
C=CCn1c(SCC(C)=O)nc2scc(-c3ccco3)c2c1=O	·	-3.0	-2.1	·	·
COc1ccc(-c2nc(C#N)c(NCc3cccnc3)o2)cc1OC	0.9	-1.8	2.9	3.1%	-8.6
CN(C)C(CNC(=O)/C=C/c1cccc(Cl)c1)c1ccccc1 (stereo not drawn)	-10.4	4.1	-7.9	0.7%	·
Cc1noc(C)c1C(=O)N1CCCc2ccccc21	2.1	0.7	4.2	-0.3%	-5.6
Cc1ccsc1C(=O)N1CCC(N2CCC(C(=O)NCC3CCCO3)CC2)CC1 (stereo not drawn)	3.7	2.6	-0.6	-2.7%	·
Cc1ccc(CSCc2nc3ccccc3[nH]2)cc1	35.7*	0.5	·	-1.4%	·
COc1ccc(NC(=O)c2nc(SC)ncc2Cl)cc1	·	0.0	1.5	-0.3%	·
O=C(O)c1ccc(NS(=O)(=O)c2cccc(C(=O)Nc3ccc(Br)cc3)c2)cc1	·	-0.6	2.7	·	·
CC(=O)c1ccc(NC(=O)NCc2ccc(F)cc2)cc1	-13.2	·	1.9	6.0%	·
CCCCc1c(O)nc(SCC(=O)NC(C)(C)C)n(-c2ccccc2C)c1=O	2.7	-2.2	4.6	0.6%	-47.7
COc1cccc(C(=O)Nc2ccccc2OC(F)(F)F)c1	-10.7	-0.4	-6.5	-0.3%	·
O=C(O)c1cccnc1SC1CC(=O)N(c2ccc(OC(F)F)cc2)C1=O (stereo not drawn)	·	-1.5	-5.8	-2.4%	·
CC(C)c1nnc(NC(=O)CN(C)S(=O)(=O)c2ccc3c(c2)OCCO3)s1	-2.6	0.1	-22.2	-5.1%	-19.8
Cc1ccc(OCC(=O)Nc2ccc3c(c2)nc(CCN2CCC(C)CC2)n3C)cc1	·	0.9	-2.4	·	·
Cc1ccc(S(=O)(=O)Nc2cccc(C(=O)NCc3ccc(S(N)(=O)=O)cc3)c2)cc1	·	3.8	5.6	·	·
CC1(C(=O)NC2CCCCCCC2)CCC(=O)N1Cc1cccs1 (stereo not drawn)	1.4	-1.2	-20.1	5.2%	-12.7
CN(C)c1ccc(/C=C/C(=O)c2c(O)c3ccccc3oc2=O)cc1	·	-14.3	2.0	-11.8%	·
CCOC(=O)C1=C(c2ccccc2)NC(=O)NC1c1ccsc1 (stereo not drawn)	·	-0.6	-11.8	·	·
Cc1c(C(=O)N2CCCCC2)nnn1-c1nonc1N	9.2	-1.4	-19.8	-8.2%	-3.5

The last four records of the part above open the next one.
SMILES	Arbovirus inh	RecA intein inh	Mtb betalactam	Mtb H37Rv	YopH inh	others
CC1(C(=O)NC2CCCCCCC2)CCC(=O)N1Cc1cccs1 (stereo not drawn)	1.4	-1.2	-20.1	5.2%	-12.7
CN(C)c1ccc(/C=C/C(=O)c2c(O)c3ccccc3oc2=O)cc1	·	-14.3	2.0	-11.8%	·
CCOC(=O)C1=C(c2ccccc2)NC(=O)NC1c1ccsc1 (stereo not drawn)	·	-0.6	-11.8	·	·
Cc1c(C(=O)N2CCCCC2)nnn1-c1nonc1N	9.2	-1.4	-19.8	-8.2%	-3.5
COc1cc2c(ccc3cc(OC)c(OC)c(O)c32)cc1O	·	-2.6	-7.5	-7.7%	·
CC(=O)Nc1nc2ccccc2n1Cc1ccccc1C	-13.8	1.6	89.8	0.2µM*	-39.2
CC(=O)O[C@H]1CSC[C@H]1NC(=O)c1ccccc1	3.4	0.1	-2.2	-7.5%	-36.8
S=C(Nc1ccc(Cl)cc1Cl)Nc1ccccc1Oc1ccccc1	-5.4	28.4	-4.4	4.5%	-32.4
CCC12CN3CCN(CC(C3)/C1=N\NC(=O)c1ccc(F)cc1)C2	0.9	-3.2	-5.5	-0.6%	·
Cc1ccccc1NC(=O)Cc1nc(COC(=O)c2cc(Cl)ccc2O)cs1	·	0.1	-15.2	·	·
O=C(COc1coc(CN2CCN(c3ccccc3F)CC2)cc1=O)N1CCc2ccccc21	·	-2.6	2.5	·	·
O=C(Nc1cccnc1)C12CC3CC(CC(C3)C1)C2	-3.4	-0.8	-2.7	-2.8%	·
NNC(=O)COc1ccccc1F	-1.2	-1.6	-3.6	-5.4%	-31.9
S=C(NCc1ccco1)N1CCN(c2ccc(Cl)cc2)CC1	6.4	2.2	-1.9	2.8%	·
O=C(CN1C(=O)c2ccccc2C1=O)OCC(=O)c1ccc(F)cc1	·	3.0	0.3	·	·

Retrieved one by one from above (4):
SMILES	Arbovirus inh	RecA intein inh	Mtb betalactam	Mtb H37Rv	YopH inh	others
O=C(CCl)Nc1cn(-c2ccccc2)nc1-c1ccccc1	-36.1	40.2*	99.3	9.87µM*	·
CCOC(=O)C1=C(c2ccccc2)NC(=O)NC1c1ccsc1 (stereo not drawn)	·	-0.6	-11.8	·	·
COc1cc2c(ccc3cc(OC)c(OC)c(O)c32)cc1O	·	-2.6	-7.5	-7.7%	·
CC(=O)Nc1ccc(NC(=O)c2ccc(CSc3ccccc3)o2)cc1	-2.7	6.0	-0.1	-2.9%	·
